# Env fusion inh: inhibitors of HIV Env-mediated cell fusion | inhibition, % at 12.3 µM | HeLa-JRFL Env/CEM21 cell fusion, luciferase | AID 651610 | 1.1% of 360,000 active;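 active = mean replicate inhibition score of at least 50 and every replicate individually at or above 50; inconclusive = only one of the two criteria met; inactive = mean below 50 and not all replicates reaching 50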;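 also: 0% = plate neutral controls and 100% = maraviroc near 300 nM; one replicate is shown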
# CSC inhib: blocks cancer stem cells; inhibition, % at 7.5 µM; cancer stem cell-like cells viability, luminescence; AID 2717; 1.1% of 300,000 active;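 active = mean at 75% or more and at least half the replicates too; inconclusive = mean and replicates disagree; tested in HMLE shEcad cells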;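 also: 0% = median of negative and 100% = median of positive control wells; the first replicate is given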
# UUG fidelity: yeast start codon fidelity modulation. S. cerevisiae UUG-firefly luciferase reporter, luminescence/redox ratio. activity score, % at 18.7 µM. 0.13% of 350,000 active. AID 602363;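 active = replicate mean at a twofold rise or more, about +100% in these data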;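 also: firefly luciferase made from a UUG start codon reports start codon fidelity; reporter light over untreated wells divided by growth signal over untreated wells; some hits fall short of that in this replicate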
# Rce1 inh: yeast Ras-converting enzyme inhibition | yeast membranes, quenched prenylated peptide cleavage fluorescence | calls only | 0.27% of 290,000 active;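 active = fall in fluorescence gain of 50% or more versus controls, with final raw signal at or below 3038400; inconclusive = same 50% fall but final raw signal above 3038400; inactive = fall in fluorescence gain under 50%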;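 also: plate controls were neutral control wells for no effect and wells lacking membranes for full effect; tested at 10 µM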
# Target sequence (Q03530 whole entry, looked up): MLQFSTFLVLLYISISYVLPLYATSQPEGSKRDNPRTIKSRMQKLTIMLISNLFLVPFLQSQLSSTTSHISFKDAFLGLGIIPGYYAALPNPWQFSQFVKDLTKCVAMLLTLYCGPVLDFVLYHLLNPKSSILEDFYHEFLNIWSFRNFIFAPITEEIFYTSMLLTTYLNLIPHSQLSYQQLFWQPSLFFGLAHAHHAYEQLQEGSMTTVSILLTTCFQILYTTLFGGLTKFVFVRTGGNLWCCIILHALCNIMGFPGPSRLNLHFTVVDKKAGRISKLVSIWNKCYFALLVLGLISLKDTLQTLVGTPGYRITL
# eIF4H FP inh: inhibitors of RNA binding by human eIF4H. eIF4H fluorescence polarization binding assay. 0.94% of 290,000 active. inhibition, % at 35 µM;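 active = 50% or more with normal probe brightness, or confirmed in later tests; inconclusive = above 50% with abnormal brightness, or retests that disagree; inactive = below 50% or failed in later tests; about a fifth of its hits are not listed in these tables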;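 also: calls also rest on retests at 20 µM and on dose response follow-up; 0% = protein and probe with vehicle and 100% = probe without protein; strong numbers were not always called active; many hits fall short of the cut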
# MT1-MMP act inh: blocks activation of human MT1-MMP. 0.061% of 360,000 active. AID 651647. GFP/RFP ratio change, % at 20 µM. HT1080 RFP-PRO-GFP cells, GFP/RFP ratio fluorescence, overnight; percent of plate control window, DMSO zero. P50281;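 active = GFP/RFP ratio change of at least 30% with cell ATP level not reduced by more than half and red fluorescence within 50% of control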; also: strong numbers were not always called active
#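 Test system: HT1080 cells expressing an RFP-PRO-GFP fluorescent reporter construct / Compound dosing: single-point 20 µM compound, 1% DMSO / Schedule: cells overnight before dosing, compound overnight, 37 °C, 5% CO2 / Evaluation: GFP/RFP fluorescence ratio / Control set: DMSO and RFP-L50D-GFP cell wells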
# PABP FP inh: PABP-poly(A) binding inhibition; 1% of 290,000 active; PABP-poly(A) RNA binding, fluorescence polarization; P11940; inhibition, % at 35 µM;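 active = 50% or more with normal probe brightness, or confirmed in later tests; inconclusive = above 50% with abnormal brightness, or retests that disagree; inactive = below 50% or failed in later tests; about a fifth of its hits are not listed in these tables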;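 also: calls also rest on retests at 20 µM and on dose response follow-up; controls were probe without protein and protein plus probe with vehicle; some compounds called inactive have numbers as strong as hits; many hits fall short of the cut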
# Target sequence (P11940 whole entry, looked up): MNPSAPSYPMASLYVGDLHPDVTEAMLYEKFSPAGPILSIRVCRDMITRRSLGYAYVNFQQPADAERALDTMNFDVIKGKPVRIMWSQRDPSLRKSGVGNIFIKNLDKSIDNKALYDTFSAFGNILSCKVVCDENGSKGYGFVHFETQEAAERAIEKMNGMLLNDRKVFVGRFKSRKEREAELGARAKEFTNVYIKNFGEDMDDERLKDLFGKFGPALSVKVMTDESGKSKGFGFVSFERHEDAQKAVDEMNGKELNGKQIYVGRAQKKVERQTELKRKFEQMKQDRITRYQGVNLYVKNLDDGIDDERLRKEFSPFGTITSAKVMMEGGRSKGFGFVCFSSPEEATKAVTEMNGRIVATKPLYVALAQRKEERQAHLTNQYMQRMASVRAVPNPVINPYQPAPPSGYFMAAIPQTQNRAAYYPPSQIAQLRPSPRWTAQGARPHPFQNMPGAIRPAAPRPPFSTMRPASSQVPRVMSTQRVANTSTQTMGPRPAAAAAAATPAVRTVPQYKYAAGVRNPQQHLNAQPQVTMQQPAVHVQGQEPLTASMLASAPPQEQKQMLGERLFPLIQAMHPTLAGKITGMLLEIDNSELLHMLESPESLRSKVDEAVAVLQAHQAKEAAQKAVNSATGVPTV
# MT1-MMP act inh RFP: recorded beside MT1-MMP act inh, whose call it bears; RFP signal change, %; measured here: RFP expression control read;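 0 = vehicle wells; hits needed this value within 50% of zero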
# * hit, by the source's call; i = inactive; ? = inconclusive; . = no result given; + = active, no number.
SMILES,Env fusion inh,CSC inhib,UUG fidelity,Rce1 inh,eIF4H FP inh,MT1-MMP act inh,MT1-MMP act inh RFP,PABP FP inh
O=C(CSc1ccc2nnc(-c3cccnc3)n2n1)N1CCOCC1,-10,-12,-8,i,-10,0,4,0
COc1cccc(NC(=O)C23CCC(C)(C(=O)O2)C3(C)C)c1 (stereo unspecified),-52,0,-19,i,3,7,11,6
O=[N+]([O-])c1ccc(N2CCOCC2)cc1N1CCCCC1,-12,-6,.,i,-6,4,4,5
Cc1cccc(C)c1NC(=O)CC1SC2=NCCN2C1=O (stereo unspecified),24,-6,-1,i,-6,2,0,15
COc1ccc(CN2CCN(Cc3c[nH]c4ccccc34)CC2)cc1,8,5,-9,i,-7,3,4,-2
Cc1ccc(-c2csc(/C(C#N)=C(\O)CCl)n2)cc1,-66,.,.,i,4,-7,4,6
CC(C)Oc1ccc(/C=C(/NC(=O)c2ccccc2)C(=O)NC(Cc2ccccc2)C(=O)O)cc1 (stereo unspecified),2,-10,.,i,-6,0,3,-1
COc1ccc(NC(=O)C2CCN(S(=O)(=O)c3ccc4c(c3)CC(C)N4C(C)=O)CC2)c(OC)c1 (stereo unspecified),-1,-3,-8,i,0,3,-6,-2
COc1cccc(NC(=O)C(c2ccccc2)N2CCNC(=O)C2)c1 (stereo unspecified),.,-6,.,i,-7,1,-1,?
COC(=O)c1cccc(NC(=O)C2COc3ccccc3O2)c1C (stereo unspecified),4,-7,-6,i,-5,1,-2,-3
COc1ccc(C2/C(=C(/O)c3ccc(C)cc3)C(=O)C(=O)N2C)cc1 (stereo unspecified),.,-3,-22,i,9,-4,12,16
CCOC(=O)C1=NN(c2ccc(OC)cc2)C2C(=O)N(c3ccccc3OC)C(=O)C12 (stereo unspecified),-2,-1,.,i,1,2,3,-2
C=CCc1ccc(OCCCCNC(C)CC)c(OC)c1 (stereo unspecified),17,18,-9,i,0,2,3,-6
CCCc1c(C(=O)N/N=C(\C)c2ccccc2O)nnn1-c1nonc1N,3,.,-24,.,.,3,4,.
CN(C(=O)c1cccs1)c1ccccc1C(=O)O,-26,-12,-19,i,-6,-1,-1,7
O=C(Nc1ccc(-c2nc3ccccc3o2)cc1)c1cc(-n2cnnc2)ccc1Cl,58*,-8,-19,i,2,6,-13,-3
O=c1cccccc1NN=C1CCCCC1,11,2,-23,i,82*,-6,1,62*
COc1cccc(CNC(=O)Cn2nc(C)c3c(C)n(-c4ccc(C)cc4)nc3c2=O)c1OC,-6,-12,-10,i,-4,4,-12,5
O=C(COc1ccccc1Cl)Nn1cnnc1,.,.,-18,i,9,16,14,9
COc1ccc(S(=O)(=O)N2CCC(C(=O)NCC3CCCCC3)CC2)cc1,-3,-9,-11,i,12,0,-1,3
CCCCNC(=O)CN(C1CCCCC1)S(C)(=O)=O,-70,-13,-13,i,-5,-6,-7,6
O=S(=O)(O)c1cc2oc(-c3ccccc3)nc2c2ccccc12,28,-8,-5,+,.,3,6,.
Cc1cccc(C2N=C(N)Nc3nc4ccccc4n32)c1 (stereo unspecified),4,-2,.,i,5,0,0,1
O=C(CSc1nnc(NC(=O)Cc2ccccc2)s1)NCC1CCCO1 (stereo unspecified),-2,.,-6,i,-4,-1,-2,-8
Cc1cc(NC(=O)c2cc(C3CC3)on2)n(-c2ccccc2)n1,-5,-15,-10,i,-7,0,1,2
Nc1ncnc2nc(SCCC(=O)O)[nH]c12,-11,-11,-21,i,0,-4,2,-5
O=C(O)CCNC(=O)c1ccc(NC(=O)C(c2ccccc2)c2ccccc2)cc1,-13,0,-10,i,7,8,6,9
N/C(=N\O)C1COc2ccccc2O1 (stereo unspecified),31,-11,-12,i,-7,9,3,-5
CCCCC(=O)NC(c1ccco1)c1cc(Cl)c2cccnc2c1O (stereo unspecified),2,102*,.,i,31,-4,-3,-6
CS(=O)(=O)N1CCCCC1c1cc(C(=O)Nc2ccccc2Cl)no1 (stereo unspecified),18,.,3,.,.,-1,-1,.
Cc1c(C2Nc3ccccc3C(=O)N2O)cnn1C (stereo unspecified),-29,-14,.,i,-10,3,-1,-15
Cc1ccccc1-c1cc(C(=O)NCC2CC2)n(CC2CC(c3cccnc3)=NO2)n1 (stereo unspecified),7,-13,-5,.,.,0,2,.
Cc1ccc(C)c(NC(=O)C(Sc2nnc(-c3cccs3)o2)c2ccccc2)c1 (stereo unspecified),-52,0,.,.,-1,-3,-3,8
Cc1nc2sc(C(c3cccs3)N3CCN(Cc4ccccc4)CC3)c(O)n2n1 (stereo unspecified),-18,-1,3,i,-5,0,1,4
CCCCOc1ccc(N=Cc2ccc[nH]2)cc1,6,-10,-44,i,0,3,0,-4
Cc1ccc2cc(CN(c3ccccc3)S(=O)(=O)c3ccccc3)c(=O)[nH]c2c1,-20,-6,.,i,-1,-3,-5,3
O=c1[nH]c(CSc2nnc(-c3ccccc3)n2-c2ccccc2)nc2ccccc12,-2,-5,.,.,-13,0,0,-4
COc1ccc(Cc2n[nH]c(=S)o2)cc1,-9,-6,.,i,-1,1,2,11
COc1ccccc1CC1(C)C(=O)Nc2ccc(S(=O)(=O)NC3CCCCC3)cc21 (stereo unspecified),56*,.,0,.,.,-1,-2,.
CCCc1c(C(=O)N/N=C/c2ccc(C)s2)nnn1-c1nonc1N,-13,-7,-14,i,6,3,8,-11
Fc1cccc(Cl)c1/C=N/Nc1ccccn1,-25,-5,-22,i,3,-5,0,-4
COc1cccc(CNC(=O)c2ccc(S(=O)(=O)N3CCCCC3)cc2)c1,-20,.,-16,.,.,4,0,.
CC(=O)Oc1oc(-c2ccccc2)nc1/C=N/c1ccccn1,.,-7,-14,i,-3,3,5,-5
Cc1ccc(C)c(Nc2c(F)c(F)c(F)c(F)c2C(=O)O)c1,10,.,.,i,-7,0,5,-3
COCc1[nH][nH]c(=O)c1C=Nc1ccccc1,-85,-13,-23,i,-8,-2,2,3
O=C(CN1C(=O)S/C(=C\c2cc(Cl)c(O)c(Cl)c2)C1=O)Nc1ccccc1,8,35,-6,i,22,-122,0,-4
O=C(NC1=NCCS1)c1csc2ccccc12,-210,8,-26,i,-4,4,2,-8
COC(=O)c1cccc(NC(=O)c2ccc3c(c2)C(=O)N(Cc2cccnc2)C3=O)c1C,-136,-17,-8,i,-5,0,4,1
COc1ccccc1NC(=O)c1c[nH]c2ccccc12,-2,5,-2,i,2,-2,-3,15
O=[N+]([O-])c1ccc(CNC2CCCc3ccccc32)cc1 (stereo unspecified),-17,6,.,i,7,-4,0,1
S=C1NCCOCCNC(=S)NCCOCCOCCN1,6,2,-17,.,-8,-1,3,4
COc1cc2c(cc1OC)CN(C(=O)COc1ccc(C)c(C)c1)CC2,-10,0,-8,i,-3,-3,-2,4
CCC(C)N1CCN(S(=O)(=O)Cc2ccccc2)CC1 (stereo unspecified),2,0,-17,i,0,-1,-3,8
CCOC(=O)C1CCN(c2c(Nc3cc(C)cc(C)c3)c(=O)c2=O)CC1,11,17,11,i,4,-3,-10,9
CCOC(=O)c1c(-c2ccccc2)nnn1-c1nc(OC)nc(N2CCOCC2)n1,.,-1,3,i,0,-1,-2,6
CCN(CC)S(=O)(=O)c1ccc(NC(=O)c2nc3nc(C)cc(C)n3n2)cc1,-4,-4,.,i,-3,.,.,4
CCOc1cc(/C=N/NC(=O)c2nnn(-c3nonc3N)c2C)ccc1OCc1ccc(F)cc1,0,-12,28,i,-11,-1,-4,8
CCN1CCN(c2ccc(S(=O)(=O)N3CCOCC3)cc2NC(=O)c2cccc([N+](=O)[O-])c2)CC1,31,-15,.,.,.,1,2,.
O=C(CCCc1ccccc1)NCc1ccc(Cl)cc1,8,-1,-13,i,6,2,4,-4
COCC1CCN(C(=O)c2cc(COc3ccc(-n4cncn4)cc3)on2)CC1,1,-1,-1,i,-3,2,-4,6

# Continued:
SMILES,Env fusion inh,CSC inhib,UUG fidelity,Rce1 inh,eIF4H FP inh,MT1-MMP act inh,MT1-MMP act inh RFP,PABP FP inh
Cc1cccc([C@@H]2[C@@H]3C(=O)N(Cc4ccccc4)C(=O)[C@@H]3[C@]3(Cc4ccccc4)C(=O)N(c4ccc(C(F)(F)F)cc4)C(=O)N23)c1,64*,11,-12,i,.,1,-5,.
CC(=O)N[C@@H](C)C(=O)OC(C)C(=O)Nc1cccc([N+](=O)[O-])c1 (stereo partly specified),10,.,.,.,-1,1,1,5
Clc1ccc(OCCCn2ccnc2)c(Br)c1,.,15,.,i,-5,-1,-2,-8
OC(c1cccc(CN2CCCCC2)c1)c1ncc(-c2ccccc2Cl)[nH]1 (stereo unspecified),26,.,-17,.,.,-3,3,.
O=C1c2ccccc2C(=O)N1c1cc([N+](=O)[O-])ccn1,6,-13,8,i,-2,0,5,-7
FC(F)(F)c1ccccc1NC(=S)Nc1cccc(Cl)c1,1,-7,-12,i,3,0,1,-8
CCCCOC(=O)c1ccc(OC(=O)c2cccnc2)cc1,19,7,-30,i,-4,6,-1,-3
Clc1cccc(NCc2nnc(SCc3ccccc3)o2)c1,-125,.,-15,i,-2,0,-3,2
O=C(CNS(=O)(=O)c1cccs1)NCCc1ccc(Cl)cc1,7,15,3,i,-12,2,3,0
CCCCCn1c(CNC(=O)CC)nc2ccccc21,27,-9,-7,i,0,1,4,17
O=C1/C(=C/c2ccc(F)cc2)SC(=S)N1CCCC(=O)N1CCCCC1CCO (stereo unspecified),1,24,-7,i,-3,1,-2,-6
O=C(COC(=O)CNS(=O)(=O)c1ccc(Br)cc1Cl)NC1CC1,-2,6,5,i,.,0,0,.
O=C(NCCc1nnc2ccc(N3CCCCCC3)nn12)c1ccccc1,17,-30,-21,i,-2,-1,0,7
CCN(CC)/C(Sc1ccccc1)=C(/C(Cl)=C(Cl)Cl)[N+](=O)[O-],15,-8,-27,i,-1,5,7,0
COc1cccc(C(=O)NCC(=O)NNc2ncnc(N)c2[N+](=O)[O-])c1,1,-10,.,i,7,1,2,-11
CCOC(=O)c1cnc(SC)nc1Sc1ccccc1Cl,.,-6,.,i,-6,-4,-2,7
O=C1CCC2(CCCCC2)N1,12,.,-21,.,.,-1,3,.
CC(C)NC(=O)c1ccccc1NC(=O)CS(=O)(=O)Cc1ccccc1,.,-8,-6,.,4,4,2,12
COCCOC(=O)C1=C(C)NC(=O)NC1c1cccc2ccccc12 (stereo unspecified),7,-4,-11,i,-4,5,1,0
CC(C)(CNC(=O)CO/N=C1/C=C2CCC3C(C(O)C[C@@]4(C)C3CC[C@]4(O)C(=O)CO)[C@@]2(C)CC1)C(O)C(=O)O (stereo partly specified),-211,-3,22,i,-2,4,4,-17

# Env fusion inh: entries above that show a hit
Molecule	Env fusion inh	UUG fidelity	Rce1 inh	MT1-MMP act inh	MT1-MMP act inh RFP
O=C(Nc1ccc(-c2nc3ccccc3o2)cc1)c1cc(-n2cnnc2)ccc1Cl	58*	-19	i	6	-13
COc1ccccc1CC1(C)C(=O)Nc2ccc(S(=O)(=O)NC3CCCCC3)cc21 (stereo unspecified)	56*	0	.	-1	-2
Cc1cccc([C@@H]2[C@@H]3C(=O)N(Cc4ccccc4)C(=O)[C@@H]3[C@]3(Cc4ccccc4)C(=O)N(c4ccc(C(F)(F)F)cc4)C(=O)N23)c1	64*	-12	i	1	-5

# Whole records, looked up by structure. Order of screens: Env fusion inh | CSC inhib | UUG fidelity | Rce1 inh | eIF4H FP inh | MT1-MMP act inh | MT1-MMP act inh RFP | PABP FP inh
# Entry for CN(C(=O)c1cccs1)c1ccccc1C(=O)O = -26 | -12 | -19 | i | -6 | -1 | -1 | 7
# Entry for CCCCOC(=O)c1ccc(OC(=O)c2cccnc2)cc1 = 19 | 7 | -30 | i | -4 | 6 | -1 | -3

# Source: PubChem

# Some of the compounds tested; the hit share may differ from the screen's.
